TSHR ag – TSH receptor (human) agonism; Potency, µM (titrated, usually from 57.1 µM), inactives show at the highest dose activation, usual class: activators; 0.48% of 73,000 active; AID 926; P16473; HEK293-CNG-TSHR cells (CNG channel as cAMP sensor), membrane potential dye, cAMP; active = well fitted activation curve of enough size with the parental cells flat; inconclusive = any curve in the parental cells; inactive = parental cells flat and receptor cells flat or falling; also: potency is read from the fitted curve at half-maximal effect; % of control where 0% means no effect; weak receptor curves with flat parental cells got no call and are not listed
Target sequence (P16473 whole entry, looked up): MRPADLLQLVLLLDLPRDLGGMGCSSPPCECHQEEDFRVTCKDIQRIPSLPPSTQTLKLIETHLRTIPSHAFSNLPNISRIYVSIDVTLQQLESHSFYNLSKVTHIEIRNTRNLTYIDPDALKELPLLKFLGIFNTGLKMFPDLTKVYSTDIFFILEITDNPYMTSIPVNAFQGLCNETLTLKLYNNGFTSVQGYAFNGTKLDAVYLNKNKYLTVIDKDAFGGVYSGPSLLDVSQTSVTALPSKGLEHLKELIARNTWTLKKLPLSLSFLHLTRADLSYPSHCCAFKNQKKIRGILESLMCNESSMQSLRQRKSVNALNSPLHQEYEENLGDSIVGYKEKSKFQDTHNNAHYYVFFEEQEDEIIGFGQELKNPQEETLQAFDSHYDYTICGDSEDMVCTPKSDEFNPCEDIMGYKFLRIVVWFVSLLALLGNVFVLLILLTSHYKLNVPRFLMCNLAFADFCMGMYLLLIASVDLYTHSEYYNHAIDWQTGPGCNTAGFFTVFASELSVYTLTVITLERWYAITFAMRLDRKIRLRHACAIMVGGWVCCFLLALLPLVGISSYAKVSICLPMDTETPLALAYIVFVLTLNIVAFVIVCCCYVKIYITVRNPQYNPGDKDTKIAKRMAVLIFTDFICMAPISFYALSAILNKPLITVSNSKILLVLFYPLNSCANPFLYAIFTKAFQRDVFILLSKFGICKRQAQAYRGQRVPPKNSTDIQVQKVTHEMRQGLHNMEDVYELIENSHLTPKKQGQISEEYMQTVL
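HEK 293 cells stably expressing TSHR and a modified CNG channel, with CNG-only parental cells as counterscreen, were preloaded 60 min at room temperature with membrane potential dye containing 100 uM RO 20-1724. Compound exposure was 30 min, and depolarization was read as fluorescence at 590 nm.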
A488 autofl – A488 region autofluorescence; compound autofluorescence, A488 spectral region, dye equivalency; active compounds read high; max dye equivalency, M; 0.1% of 59,000 active; AID 591; active = above 10 nM dye equivalent; inconclusive = 1 to 10 nM; inactive = 1 nM or less; about half of its hits are not listed in these tables;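 also: highest value over a series up to 38 µM; compound alone in buffer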
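Compound autofluorescence was read in 100 mM Tris pH 8.0 after 15 min at room temperature, ex 480 nm/em 540 nm. Intensities were converted to A488 dye-equivalent concentration using an on-plate six-point A488 standard curve.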
Resorufin fluor – compounds fluorescent in resorufin spectral region; Compound fluorescence, resorufin region 547/598 nm, buffer; active compounds read high; max dye-equivalent concentration, M; 0.04% of 59,000 active; active = above 10 nM dye equivalent; inconclusive = 1 to 10 nM; inactive = 1 nM or less; a few of its hits are not listed in these tables; also: highest value over a series up to 38 µM
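Dye-equivalent concentration values derive from comparing each well's 547/598 nm fluorescence against resorufin standards included on every plate. Incubation was 15 min at room temperature in 100 mM Tris, pH 8.0.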
AID923 – qHTS Assay for Allosteric/Competitive Inhibitors of Caspase-1: Spectroscopic Profiling in AFC Spectral Region | compound fluorescence, AFC spectral region (405/520 nm); almost no hit is shown here | Potency, µM (titrated, usually from 57.5 µM), for inactives: at the top dose fluorescence increase, most hits filed as activators | 1.1% of 75,000 active | AID 923, 2007; active = well fitted activation curve with a large enough effect; inconclusive = small, poorly fitted or top-dose-only effect;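 also: potency is read from the fitted curve at half-maximal effect; 0% is about no effect; scaled to a free AFC standard on each plate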
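Baseline compound fluorescence (AFC region, 405 nm ex/520 nm em) taken from the intercept of kinetic reads with 50 nM caspase-1 and 5 uM Ac-WEHD-AFC; normalized to an on-plate AFC standard curve; compounds titrated up to 57 uM.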
A647 autofl – compound fluoresces in the A647 spectral region; max dye-equivalent concentration, M; 59,000 tested, under 10 active; Compound fluorescence, A647 channel (570/671 nm), Tris buffer; AID 592; active means above 1 µM dye equivalent; inconclusive means 0.1 to 1 µM; inactive means 0.1 µM or less;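 also: values scaled relative to a standard on each plate; highest value over a series up to 38 µM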
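Tris 100 mM pH 8.0; cpd + A647 stds pin-transferred; 15 min RT; CCD imager, ex 570/em 671. Output = A647-equivalent conc. per cpd conc.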
* marks the source's active call; other numbers are inactive results; i = inactive; ? = inconclusive; / = not tested or not shown; & = joins results of further samples; [ ] = dose if it differs, or a comment. Not all compounds are listed; rates above refer to the full screens.

Each structure is followed by: TSHR ag | A488 autofl | Resorufin fluor | AID923 | A647 autofl
Cn1cccc1C(=O)N1CCC2(CC1)CN(C(c1ccccc1)c1ccccc1)C2
→ ? | i | i | 0.0% | 3.4e-09
Cc1cc(C)n2nc(SC3CCCCN(C(=O)c4ccc(F)cc4)C3=O)nc2n1 (stereo not drawn)
→ 7% | i | i | -0.7% | 2e-09
Cc1nn(Cc2ccccc2)c(C)c1NC(=O)c1cc(-c2ccc3c(c2)OCO3)on1
→ 6% | i | i | -0.3% | 1.9e-09
Cc1cccc(C)c1OCC(=O)Nn1c(C)nc2ccccc2c1=O
→ / | i | i | 3.6% | 2.8e-08
CCn1c(SCC(=O)Nc2ccc3c(c2)OCO3)nc2c1c(=O)n(C)c(=O)n2C
→ 5% | i | i | 0.0% | 2.8e-08
O=C(CN(c1ccc2c(c1)OCCO2)S(=O)(=O)c1ccccc1)Nc1ccc2c(c1)OCO2
→ 27% | i | i | -1.3% | 1e-09
O=C(CSc1nnc(-c2ccccn2)n1Cc1ccccc1)Nc1ccc2c(c1)OCO2
→ / | i | i | -3.7% | 1.5e-08
O=C(Nc1ccccc1C(=O)N1CCN(c2ccccc2)CC1)c1ccco1
→ 5% | i | i | 1.1% | 9.8e-09
O=S(=O)(c1ccccc1)N1CCN(Cc2cccc(Cl)c2)CC1
→ 0% | i | i | 0.3% | 6.8e-09
CC1CC(C)CN(c2nc3c(c(=O)n(C)c(=O)n3C)n2C)C1 (stereo not drawn)
→ 5% | i | i | -3.6% | 1.9e-08
CC1CCN(S(=O)(=O)c2ccc3[nH]c(=O)c(=O)[nH]c3c2)CC1
→ -1% | i | i | 1.0% | 7.2e-09
O=c1cc(N2CCN(c3ccccc3F)CC2)[nH]c(=O)n1-c1ccc(Br)cc1
→ 5% | / | / | -2.1% | /
COc1ccccc1OCC(O)Cn1c(=N)n(Cc2ccccc2)c2ccccc21 (stereo not drawn)
→ ? | i | i | 5.5% | 3.4e-08
Nc1nc(SCc2ccccc2)[nH]c(=O)c1-c1ccccc1
→ 28% | i | i | 0.1% | 2.1e-08
Cc1[nH]nc2c1C(c1cccnc1)N(c1ccc(Br)cc1)C2=O (stereo not drawn)
→ 1% | i | i | -0.5% | 4.4e-08
CN(C)C(=O)c1ccc(-c2nccc(NCc3cccnc3)n2)cc1
→ 2% | i | i | -2.4% | 7.1e-09
CCCN(CC1CC1)c1nc(C)nc(Nc2c(Cl)cc(Cl)cc2Cl)c1Cl
→ ? | i | i | 3.0% | 8.1e-09
COc1ccc(NC(=O)CN(c2ccc(C)cc2)S(C)(=O)=O)c(OC)c1
→ -2% | / | / | 1.0% | /
O=C1CC(N2CCC(C(=O)N3CCCCC3)CC2)C(=O)N1 (stereo not drawn)
→ 1% | i | i | 0.6% | 1e-09
COc1ccc(-c2nc(CS(=O)(=O)CC(=O)Nc3ccc(Cl)cc3)c(C)o2)cc1
→ -7% | / | / | 0.4% | /
CCSc1nnc(NC(=O)C2CC=CCC2C(=O)O)s1 (stereo not drawn)
→ 7% | / | / | -1.0% | /
NC(=O)Cn1c(S(=O)(=O)Cc2ccccc2)nc2ccccc21
→ 7% | i | i | -0.3% | 4.2e-08
O=C(c1cccc(S(=O)(=O)NCCOc2ccccc2)c1)N1CCN(c2ncccn2)CC1
→ 20% | i | i | -2.2% | 1e-09
Cc1oc(-c2ccccc2)nc1C(=O)OCC(=O)NC(=O)NCC(C)C
→ 22% | i | i | -0.4% | 3.9e-08
COc1ccccc1-n1c(SCC(=O)N2CCCC2)nc2cccnc21
→ -10% | i | i | -0.8% | 5.8e-08
NS(=O)(=O)c1cc2c(cc1Cl)N[C@@H](CC1CCCC1)NS2(=O)=O
→ 3%[25.6 µM] | i | i | -0.6%[25.7 µM] | 1e-09
CCOC(=O)c1sc(NC(=O)CSc2nc(-c3ccco3)cc(C(F)(F)F)n2)c(C#N)c1C
→ 1% | i | i | -1.3% | 3.3e-09
COc1ccc(CNc2nc3nc(-c4ccccc4)cc(=O)n3[nH]2)cc1OC
→ -8% | i | i | 1.4% | 2.6e-08
CCS(=O)(=O)Nc1ccc2c(c1)N(C(C)=O)c1ccccc1CC2
→ 5% | i | i | 0.3% | 1e-09
CCC(C)NC(=O)CCCCCn1c(=O)[nH]c2cc(OC)c(OC)cc2c1=O (stereo not drawn)
→ 6% | i | i | 0.5% | 1.9e-08

Only TSHR ag (4 entries from above):
| molecule | TSHR ag |
| --- | --- |
| CN(C)C(=O)c1ccc(-c2nccc(NCc3cccnc3)n2)cc1 | 2% |
| CCCN(CC1CC1)c1nc(C)nc(Nc2c(Cl)cc(Cl)cc2Cl)c1Cl | ? |
| COc1ccc(NC(=O)CN(c2ccc(C)cc2)S(C)(=O)=O)c(OC)c1 | -2% |
| O=C1CC(N2CCC(C(=O)N3CCCCC3)CC2)C(=O)N1 (stereo not drawn) | 1% |

Additional structures.
Each structure is followed by: TSHR ag | A488 autofl | Resorufin fluor | AID923 | A647 autofl
COC(=O)c1ccccc1NC(=O)CSc1ccccn1
→ 16% | i | i | -1.4% | 2.9e-08
COC(=O)c1oc2ccc(Br)cc2c1NC(=O)c1ccccc1
→ ? | i | i | -0.6% | 1.8e-08
O=C(CCCn1c(=O)oc2ccccc21)Nc1cccnc1
→ -1% | i | i | -3.3% | 7.6e-09
CCOC(=O)N1CCC2(CC1)CC(=O)c1c(ccc3oc(C(=O)O)c(C)c13)O2
→ -1% | / | / | 2.7% | /
[O-][n+]1onc2c1CCc1nnccc1-2
→ 5% | i | i | 0.4% | 1e-09
CCC(C)C(=O)Nc1cc(OC)c(OC)cc1C(=O)O (stereo not drawn)
→ 6% | i | i | 1.0% | 1e-09
CC(C)N(C(=O)CSc1nnc(CN2CCCCCC2=O)n1-c1ccccn1)C(C)C
→ 6% | i | i | 0.4% | 1.9e-08
O=C(COc1ccccc1)c1cn(CC(=O)N2CCOCC2)c2ccccc12
→ 10% | i | i | 0.6% | 1e-09
O=C(c1cc(-c2ccc3c(c2)OCO3)on1)N1CCN(c2ccc(F)cc2)CC1
→ ? | i | i | -0.2% | 3.3e-08
CCCCCCc1c(C[C@H](N)C(=O)O)o[nH]c1=O
→ 2%&-2% | / | / | -0.7%&8.2% | /
CCn1c2ccccc2c2cc(CN3CCN(C(=O)c4ccco4)CC3)ccc21
→ ? | / | / | -0.9% | /
NC(N)=Nc1ccc(-c2ccc(N=C(N)N)cc2)cc1
→ 1%[11.4 µM] | i | i | -4.1%[11.5 µM] | 1.8e-09
COc1cccc(-c2cc(NCc3cccnc3)ncn2)c1
→ ? | i | i | -0.9% | 1e-09
COc1cccc(C(=O)Nc2nc(-c3ccc(S(=O)(=O)N4CCOCC4)cc3)cs2)c1
→ ? | i | i | -0.5% | 1e-09
COc1ccc(C(=O)NCCn2ccc3ccccc32)cc1
→ 2% | i | i | -0.9% | 2.7e-08
C=CCSc1nnc(NC(=O)CSc2ccccn2)s1
→ ? | i | i | -0.2% | 3.1e-08
COc1cc(C(=O)N2CCC(NC(=O)C(Cc3ccccc3)NC(C)=O)CC2)cc(OC)c1OC (stereo not drawn)
→ 2% | i | i | -2.6% | 4.2e-08
CCOC(=O)c1cc2occc2n1CC(=O)NC1CCCCC1C (stereo not drawn)
→ ? | i | i | -1.0% | 1e-09
COc1ccc(C(=O)Nc2ccc(-c3ccc(C)o3)cc2)cc1S(=O)(=O)N1CCOCC1
→ 17% | i | i | -0.5% | 3.4e-08
COc1ccc(N2CCN(c3nc4c(c(=O)n(C)c(=O)n4C)n3Cc3ccccc3)CC2)cc1
→ -5% | i | i | -0.5% | 6.6e-09
CC(C)CC(OC(=O)c1cccs1)C(=O)NCc1cccs1 (stereo not drawn)
→ / | i | i | 0.4% | 1e-09
COc1ccccc1OCCSc1nnc(C)n1-c1ccccc1
→ 0% | i | i | 5.0% | 1e-09
CCOC(=O)N1CCN(C(=O)c2cnn3c(C)c(Cc4ccc(C)cc4)c(C)nc23)CC1
→ ? | i | i | 0.1% | 1.3e-08
CC(=O)Nc1cnc2ccccc2n1
→ / | i | i | / | 1e-09
CC1=C(C(=O)NCc2ccccc2)C(c2cccnc2)n2ncnc2N1 (stereo not drawn)
→ 2% | i | i | -2.5% | 3.7e-08
CC(=O)c1c(N2CCOCC2)nc(=S)n(Cc2ccccc2)c1C
→ 5%[11.4 µM] | i | i | 1.0% | 2.6e-09
CCN1C(=O)C=CC1=O
→ -4% | i | i | -0.7% | 5.2e-09
CC1(C)C(=O)Nc2ccccc2N1C(=O)COC(=O)C12CC3CC(CC(O)(C3)C1)C2
→ -4% | i | i | 0.7% | 3.2e-09
CCN(CC)S(=O)(=O)c1ccc(C(=O)OCC(=O)N2CCN(C(=O)c3ccco3)CC2)cc1
→ 2% | i | i | 1.4% | 4.6e-08
Cc1cnc(CNc2ncncc2-c2ccccc2Cl)cn1
→ 3% | i | i | 1.4% | 4.2e-08
CC1CCC2C(=O)N3C(CCC(C)[C@@H]3c3cccc(N4CCOCC4)c3)C(=O)N2C1c1cccc(Br)c1 (stereo partly drawn)
→ -10%[11.4 µM] | / | / | -2.4%[11.5 µM] | /
N#CC1=C(N)N(c2ccccc2)C(c2ccco2)C1(C#N)C#N (stereo not drawn)
→ 4% | i | i | -0.5% | 1e-09
CCCC(=O)Nc1c2c(nn1-c1ccc(C)cc1C)CSC2
→ / | i | i | 2.1% | 1.1e-08
Cc1nnc(NC(=O)CSc2nnc(Cc3cccn3C)n2-c2cccc(C)c2C)s1
→ 2% | / | / | -0.8% | /
Cc1nc(SCCO)c2oc3ccccc3c2n1
→ -11% | i | i | -0.1% | 1.7e-08
CCCCC(=O)Nc1ccc(Cl)cn1
→ 5% | i | i | 0.3% | 6.2e-09
O=C(c1cc2nc(-c3ccccc3)cc(C(F)(F)F)n2n1)N1CCOCC1
→ 0% | i | i | 2.4% | 1.4e-08
COC(=O)c1ccc(NC(=O)CN(C2CCCCC2)S(C)(=O)=O)cc1
→ 3% | i | i | 1.3% | 2.5e-08
O=C(/C=C/Nc1ccc(F)cc1)c1ccco1
→ 5% | i | i | 6.8% | 2.4e-09
Cc1cc(C)cc(N(CC(=O)NCc2ccco2)C(=O)CCC(=O)Nc2ccccn2)c1
→ 14% | i | i | 0.2% | 2.5e-08
COc1ccc(Oc2ncc3nc(-c4cccc(C#N)c4)c(=O)n(Cc4cccc(OC)c4)c3n2)cc1
→ ? | i | i | 14% | 2.5e-08
CC1(C)Oc2ccc(C(=O)NC3CCCC3)cc2N(CC(=O)NC2CCCCC2)C1=O
→ 9%[11.4 µM] | i | i | -2.6% | 2.4e-09
Cc1sc2nc(-c3ccco3)oc(=O)c2c1C
→ 9% | i | i | 3.1% | 7.2e-08
COc1ccccc1CC(=O)Nc1ccc(-c2nnc(-c3ccco3)o2)cc1
→ 3% | / | / | 3.2% | /
Cc1cc(O)c(-c2cc(C(=O)Nc3ccc(S(=O)(=O)N4CCOCC4)cc3)[nH]n2)cc1C
→ -30%[inhibitor] | i | i | 0.0% | 1e-09
CCSc1nnc(NC(=O)Cc2ccc(OC)c(S(=O)(=O)N3CCOCC3)c2)s1
→ -7% | i | i | 1.3% | 1e-09
COCCn1c(=O)[nH]c2cc(C(=O)OC)ccc2c1=O
→ 6%[11.4 µM] | i | i | 1.2% | 2e-09
O=C1CCCc2nc(N3CCCCC3)sc21
→ 0% | i | i | 0.1% | 1.4e-08
COc1ccc(C)cc1S(=O)(=O)N(CC(=O)O)c1ccc(F)cc1
→ -16% | i | i | 1.9% | 1.8e-08

Structural class: the compounds so far with a cyano group (3)
Each structure is followed by: TSHR ag | A488 autofl | Resorufin fluor | AID923 | A647 autofl
CCOC(=O)c1sc(NC(=O)CSc2nc(-c3ccco3)cc(C(F)(F)F)n2)c(C#N)c1C
→ 1% | i | i | -1.3% | 3.3e-09
N#CC1=C(N)N(c2ccccc2)C(c2ccco2)C1(C#N)C#N (stereo not drawn)
→ 4% | i | i | -0.5% | 1e-09
COc1ccc(Oc2ncc3nc(-c4cccc(C#N)c4)c(=O)n(Cc4cccc(OC)c4)c3n2)cc1
→ ? | i | i | 14% | 2.5e-08
